Compound activity as filed in PubChem BioAssay.
Insulin prom inh – TRM-6 insulin promoter activity inhibition. inhibition, % at 2 µM. TRM-6 cells (human fetal islet line), insulin promoter-eGFP reporter, imaging; reporter expression induced with tamoxifen. AID 1273. actives 0.9% (n = 130,000);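 active means inhibition above the mean plus 3 SD, with well images judged a real hit on visual review, cut at about 60% in these data, passing the limit was not always enough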
RGS16-Gao HTS – modulates binding between human RGS16 and Galphao | O15492+P09471 | bead-based flow cytometry RGS16-Galphao binding, fluorescence; actives lie on both sides | binding response (% of control), % at 10 µM | actives 0.38% (n = 220,000);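 active means below 25% or above 175%, edge rows of some plates excepted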;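 further: Galphao activated by GDP with aluminum fluoride before binding; 100% = wells without compound and 0% = beads without RGS; some results beyond the cut were filed as inactive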
Target sequence (O15492 whole entry, looked up): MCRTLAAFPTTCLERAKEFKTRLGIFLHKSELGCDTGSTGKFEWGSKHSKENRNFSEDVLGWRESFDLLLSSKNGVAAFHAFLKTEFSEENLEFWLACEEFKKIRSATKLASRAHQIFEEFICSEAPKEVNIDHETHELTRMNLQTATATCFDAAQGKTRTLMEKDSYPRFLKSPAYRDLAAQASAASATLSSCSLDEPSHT
Target sequence (P09471 whole entry, looked up): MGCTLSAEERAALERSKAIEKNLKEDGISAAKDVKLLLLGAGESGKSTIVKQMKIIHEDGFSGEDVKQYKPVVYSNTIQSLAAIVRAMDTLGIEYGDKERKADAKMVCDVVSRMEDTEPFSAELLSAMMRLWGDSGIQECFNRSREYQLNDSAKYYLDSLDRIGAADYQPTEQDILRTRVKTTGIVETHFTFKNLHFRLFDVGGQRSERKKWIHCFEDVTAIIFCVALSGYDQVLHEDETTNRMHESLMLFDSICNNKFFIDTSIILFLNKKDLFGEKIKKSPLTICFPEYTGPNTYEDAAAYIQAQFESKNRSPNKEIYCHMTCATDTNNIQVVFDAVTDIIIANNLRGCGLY
HSV augment – HSV replication enhancement. actives 0.005% (n = 220,000). maximum fold increase. HSV replication augmentation in cells, fold increase;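 active means peak rise of 1.5-fold or more in the series; tested in PC3 cells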;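 further: first round at 10 µM; read as green reporter fluorescence; hits show the peak of a series up to 25 µM; 1 = signal of infected wells without compound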
PKD1 inh – inhibitors of human PKD1 kinase | actives 0.056% (n = 200,000) | AID 797 | PKD1 kinase fluorescence polarization assay | Q15139 | inhibition, %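 (about 10 µM by stock and volumes)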;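 active means inhibition of 50% or more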;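 further: controls were vehicle for no effect and a reference inhibitor for full effect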
GALR2 ag – activates the human galanin receptor 2 | O43603 | GALR2-expressing cells, agonist activation read-out | activation, %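 (tested at 5 µM)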 | actives 0.48% (n = 140,000);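 active means above mean plus 3 SD of all compounds, about 5% in these data, not always enough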;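 further: 0% = vehicle buffer wells and 100% = reference agonist at full effect; tested in CHO reporter cells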
Target sequence (O43603 whole entry, looked up): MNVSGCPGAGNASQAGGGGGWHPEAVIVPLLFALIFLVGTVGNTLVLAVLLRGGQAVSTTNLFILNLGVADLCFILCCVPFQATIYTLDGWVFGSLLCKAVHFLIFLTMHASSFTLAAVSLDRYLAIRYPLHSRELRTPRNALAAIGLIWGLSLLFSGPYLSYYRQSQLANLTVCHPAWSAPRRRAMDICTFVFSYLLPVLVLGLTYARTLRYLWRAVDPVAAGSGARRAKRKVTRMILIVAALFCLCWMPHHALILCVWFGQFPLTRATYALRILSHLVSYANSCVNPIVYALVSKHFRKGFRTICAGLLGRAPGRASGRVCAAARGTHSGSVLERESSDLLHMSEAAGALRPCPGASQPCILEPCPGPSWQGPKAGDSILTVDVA
Insulin prom inh cell count – recorded beside Insulin prom inh, whose call it bears; normalized cell count, %; measured here: cell count, toxicity; reference of the scale not given here;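 cells exposed to compound for 48 h; stained nuclei by imaging scaled within each plate; lower means fewer cells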
HSV augment primary fold – further read-out of HSV augment, marked with its call; fold increase; compound at 10 µM; measured here: primary screen fold increase 10 uM; tested in PC3 cells;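 GFP signal in the first replicate; 1 = infected wells without compound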
* hit, by the source's call; i = inactive; nt = no result given; [ ] = another dose, or the depositor's remark.

SMILES	Insulin prom inh	Insulin prom inh cell count	RGS16-Gao HTS	HSV augment	HSV augment primary fold	PKD1 inh	GALR2 ag
COCCCNCCOCCOc1ccc(Cl)cc1C(C)(C)C	-55	33	138	i	0.74	-12	0.7
Nc1nnc(C(F)(F)F)s1	nt	nt	91	i	0.87	-3	nt
Cc1cc(=O)oc(C)c1C(=O)OCC(=O)c1ccc(Cl)c(Cl)c1	39	26	78	i	1.2	-3	1.6
O=C(CN(c1ccc(Cl)c(Cl)c1)S(=O)(=O)c1ccccc1)N1CCc2ccccc2C1	-72	79	97	i	1	-6	-1.6
COc1ccc(CN(C(=O)c2cc3ccccc3oc2=O)C2CCS(=O)(=O)C2)cc1 (stereo unspecified)	nt	nt	105	i	1.2	nt	nt
CN(Cc1ccccc1)c1nc(N)nc(Cl)c1C=O	-11	195	108	i	1.1	-4	nt
CC(C)c1ccccc1NS(=O)(=O)N(C)C	-380	40	102	i	1	-6	nt
S=C(NCc1ccco1)N1CCC(c2nc3ccccc3o2)CC1	-7	92	101	i	0.99	-2	nt
Cc1cc(C(=O)NC2=NCCS2)c2ccccc2n1	nt	nt	92	i	1.1	3	nt
COc1ccc(NC(=O)N2CCCCCC2)c(OC)c1	-16	139	102	i	0.98	-7	nt
O=C(COC(=O)Cc1ccsc1)NCC1CCCCC1	8	113	107	i	1.1	-2	-3.0
CC(C)C(=O)Nc1ccc(NC(=O)c2cccnc2)cn1	3	96	97	i	1	3	-1.7
C/C=N/N(c1ccccc1)c1ccccc1	nt	nt	104	i	1	nt	nt
O=C(NCCc1ccccc1)c1cnc2sccn2c1=O	nt	nt	105	i	0.88	-7	-1.1
CCOC(=O)C1=C(C)N=C2SC(C(=O)OC)=CC(=O)N2C1c1ccc(F)cc1 (stereo unspecified)	nt	nt	87	i	0.98	8	9.2
COc1ccc(C[C@H]2CN3C(=NC[C@@H]3C(C)C)N2C[C@H](C)NC(=O)c2ccc(C)c(Br)c2)cc1	nt	nt	94	i	0.68	4	nt
CCC1=NN(C(=O)Cc2ccc([N+](=O)[O-])cc2)C(O)(C(F)(F)F)C1 (stereo unspecified)	nt	nt	103	i	0.91	nt	nt
c1ccc(CNC23CC4CC(CC(C4)C2)C3)nc1	-50	141	94	i	0.91	5	nt
Cc1cc(Cl)c(S(=O)(=O)N2CCSCC2)cc1OCC(N)=O	-32	54	106	i	1	-7	-1.9
CCOCCn1c(SC)nc2c1c(=O)[nH]c(=O)n2C	nt	nt	103	i	0.77	-7	-2.5

Compound profiles (already shown). Order of values: Insulin prom inh, Insulin prom inh cell count, RGS16-Gao HTS, HSV augment, HSV augment primary fold, PKD1 inh, GALR2 ag
CC(C)c1ccccc1NS(=O)(=O)N(C)C reads -380, 40, 102, i, 1, -6, nt
S=C(NCc1ccco1)N1CCC(c2nc3ccccc3o2)CC1 reads -7, 92, 101, i, 0.99, -2, nt
COCCCNCCOCCOc1ccc(Cl)cc1C(C)(C)C reads -55, 33, 138, i, 0.74, -12, 0.7

The main list resumes with the 3 entries that preceded the break.
SMILES	Insulin prom inh	Insulin prom inh cell count	RGS16-Gao HTS	HSV augment	HSV augment primary fold	PKD1 inh	GALR2 ag
c1ccc(CNC23CC4CC(CC(C4)C2)C3)nc1	-50	141	94	i	0.91	5	nt
Cc1cc(Cl)c(S(=O)(=O)N2CCSCC2)cc1OCC(N)=O	-32	54	106	i	1	-7	-1.9
CCOCCn1c(SC)nc2c1c(=O)[nH]c(=O)n2C	nt	nt	103	i	0.77	-7	-2.5
CCCCNC(=O)c1onc(CSc2cc(C)ccc2C)c1C(=O)O	nt	nt	99	i	0.85	-4	-3.3
CS(=O)(=O)N(CC(=O)Nc1ccc(CC#N)cc1)c1ccc(C23CC4CC(CC(C4)C2)C3)cc1	8	92	104	i	0.72	-17	-0.2
CCc1ccc(N2C(=O)C3C4CCC(C4=C(C)C)C3C2=O)cc1 (stereo unspecified)	-48	74	102	i	1	-3	-0.6
CC1Cc2ccccc2N1C(=O)c1cc2sccc2n1Cc1ccc(F)cc1 (stereo unspecified)	-2	104	97	i	0.75	-1	-0.9
CC1(C)NC(=O)N(CC(O)COc2ccc(-c3ccc(C#N)cc3)cc2)C1=O (stereo unspecified)	31	154	96	i	0.78	3	-3.7
Cc1ccccc1S(=O)(=O)Nc1nc2ccccc2nc1NCCO	-4	66	99	i	1.1	2	-1.9
Cc1cccc(NC(=O)CN2C(=O)S/C(=C\c3ccc(-c4cccc(C(=O)O)c4C)o3)C2=O)c1	nt	nt	98	i	0.95	-5	nt
CC(=O)Nc1c(C)ccc(CNC(=O)COc2ccc(F)cc2)c1C	5	126	109	i	1.1	1	nt
Cc1oc(=O)c(NC(=O)c2ccc(Cl)cc2)cc1C(=O)c1ccccc1	22	45	99	i	0.85	-3	-1.5
CC(=O)c1ccc(OCC(=O)NCC2(N3CCCCC3)CCCCC2)cc1	nt	nt	107	i	1	nt	nt
CC(=O)Cn1ncc(N2CCOCC2)cc1=O	nt	nt	102	i	0.95	3	nt
CCCSC1=N/C(=C/c2ccsc2)C(=O)N1c1ccccc1	0	48	115	i	0.98	-16	0.9
Cc1ccc(C2N(c3ccc(Cl)c(Cl)c3)C(=O)C3CCCN32)o1 (stereo unspecified)	-343	37	96	i	0.74	-9	-1.6
CCCCCCn1c(NCC)nc2c1c(=O)[nH]c(=O)n2C	-29	145	104	i	0.95	0	1.3
COc1ccccc1C(=O)N(CCC1CCCN1C)c1nc2ccccc2s1 (stereo unspecified)	-49	20	113	i	0.93	-6	nt
O=C(CSc1ncnc2ccccc12)c1ccco1	-92	86	102	i	1.2	-6	nt
Cc1ccc(NC(=S)N2CCCC2)cc1	17	105	101	i	0.92	2	nt
Cc1cccc(NC(=O)/C=C/c2ccc3c(c2)OCO3)n1	nt	nt	46	i	1	8	-0.6
c1ccc(CN2CCOCCOCCOCCOCC2)cc1	nt	nt	89	i	1.1	nt	nt
CCOC(=O)N1CCN(c2ccc(Cl)c(Cl)c2)CC1	-50	65	96	i	0.87	-2	-2.3
COc1cccc(CNc2ccccc2O)c1OCc1ccccc1F	nt	nt	102	i	0.96	-2	nt
C=CCSC1=N/C(=C\C=C\c2ccco2)C(=O)S1	-21	92	97	i	1.1	-4	-0.5
CC(C)CN(C(=O)CN1CCN(c2ccc(O)cc2)CC1)c1c(N)n(CC(C)C)c(=O)[nH]c1=O	23	114	111	nt	nt	0	-1.4
COc1ccc(NC(=S)N2CCN(C(=O)C3CCCO3)CC2)c(OC)c1 (stereo unspecified)	-18	109	109	i	0.99	5	-1.2
Nc1ccc(C(=O)OCCCc2nc3ccccc3[nH]2)cc1	-14	108	99	i	0.95	-5	-0.4
COc1ccc(C2CC(=O)NC3=C2C(=O)CCC3)cc1Cl (stereo unspecified)	9	122	101	i	0.8	-1	-1.6
C=CCNc1cc(C)oc(=O)c1C(=O)CC	24	86	101	i	0.88	6	nt
COc1ccc2[nH]c3c(N4CCc5ccccc5C4)ncnc3c2c1	nt	nt	104	i	0.53	nt	nt
Cc1cc(C)cc(N(CC(=O)N2CC=C(c3ccccc3)CC2)S(=O)(=O)c2c(C)noc2C)c1	nt	nt	101	i	1	-7	-1.6
COc1ccc(CC(=O)N2CC(C)CC(C)C2)cc1OC (stereo unspecified)	9	76	105	i	0.98	4	-0.7
O=C(NCCc1ccccc1)c1ccc(-c2ccc(F)cc2)o1	nt	nt	103	i	0.82	-6	nt
CCc1ccc(C(=O)CSc2nc(C)cc(=O)[nH]2)cc1	nt	nt	78	i	0.93	-12	nt
Cc1c(-c2ccc(O)cc2)nc2nc(-c3ccccc3)c(-c3ccccc3)nn12	nt	nt	102	i	0.96	nt	nt
CCC(=O)N/C(=N/c1nc(C)cc(C)n1)Nc1ccccc1	nt	nt	108	i	0.82	nt	nt
COCCCNC(=O)c1cc2c(=O)n(C)c3ccccc3c2n1C	nt	nt	87	i	0.8	-3	-1.1
COc1ccc(N2CCc3c(C)nc4c(OC)cc(OC)cc4c32)cc1	-10	124	100	i	0.58	1	nt
CC(C)Cn1cc(F)c(=O)n(CC(C)C)c1=O	29	129	97	i	1.1	-2	nt
CCOc1ccc(CNC(=S)N/N=C/c2cccnc2)cc1	-14	113	106	i	0.98	-27	0.5
O=C(c1nn2c(C(F)(F)F)cc(-c3ccco3)nc2c1Br)N1CCCc2ccccc21	-50	71	nt	i	0.66	-6	-2.4
CCCC(=O)Nc1ccc(NC(=O)CCc2ccccc2)cn1	nt	nt	106	i	1	-6	-1.4
Cc1ccc(C(=O)N2CCN(c3ccccn3)CC2)cc1[N+](=O)[O-]	nt	nt	106	i	1	-6	nt
COc1ccc(CCNC(=O)Cn2cccc2C(=O)c2ccccc2)c(OC)c1	-7	144	107	i	0.87	-4	nt
Cc1ccc(-n2nc3c(c2NC(=O)c2c(-c4ccccc4Cl)noc2C)CS(=O)(=O)C3)c(C)c1	-9	84	97	nt	nt	-238	-0.6
Cc1cc(C)n(CC(C)NC(=O)CCc2nnc(CCc3ccccc3)o2)n1 (stereo unspecified)	nt	nt	102	i	1.1	-8	nt
O=C(CSCc1ccccc1)N/N=C/c1ccccc1OCc1ccccc1	nt	nt	99	i	0.74	3	-2.0
Cc1nc(Nc2ccc(O)cc2)c2c3c(sc2n1)CCCC3	nt	nt	96	i	0.65	nt	nt
C=C(C)COc1ccc2c(CC)cc(=O)oc2c1C	11	112	108	i	0.83	-2	-1.0
O=C(Nc1ccc2c(c1)OCCO2)C(c1ccc(F)cc1)N1CCCCC1 (stereo unspecified)	35	113	199	i	0.97	-4	-1.9
O=C1/C(=C\Nc2ccccc2)CCN1c1ncccn1	nt	nt	98	i	0.84	4	-0.2
CCc1ccc(C(=O)c2cncc(Br)c2)cc1	9	112	111	i	1	-2	-1.7
Cc1ccc(S(=O)(=O)Cc2cn3cccnc3n2)cc1	nt	nt	96	i	1	-11	-1.5
O=C(Nc1cccc(Cl)c1)NC1(C(=O)NCc2cccs2)CCCCC1	11	81	97	i	0.81	-1	-2.1
COc1cc2c(c(OC)c1)C(c1cccc(OC)c1OC)CC(=O)N2 (stereo unspecified)	nt	nt	97	i	1.2	1	-2.3
CCC(C)(C)n1nnnc1C(c1cc2cc(C)cc(C)c2[nH]c1=O)N1CCCC1 (stereo unspecified)	-15	134	102	i	1.1	12	-0.8
CC(C)N=C1NN=C(c2cccs2)C(CC(=O)O)S1 (stereo unspecified)	nt	nt	97	i	1.1	nt	nt
COc1ccc(N(C)S(=O)(=O)c2cccc(C(=O)OCC(=O)Nc3sc4c(c3C#N)CCCCC4)c2)cc1	11	104	101	i	0.99	-6	-1.5
COc1ccc(-c2c3c(nc4sc5c(=O)[nH]c(C)nc5c24)CCC3)cc1	6	129	101	i	0.76	-4	0.6
O=C(Nc1ccc2oc(-c3cccnc3)nc2c1)c1cc2ccccc2o1	-14	105	105	i	0.86	2	0.6
O=C(O)CC1(CC(=O)NCc2cc(F)cc3c2OCOC3)CCCCC1	nt	nt	151	i	0.92	nt	nt
COC(=O)C1=C(C)N(c2cc(Cl)cc(Cl)c2)C(=O)C1	nt	nt	68	i	0.72	3	-0.8
The results go on.
SMILES	Insulin prom inh	Insulin prom inh cell count	RGS16-Gao HTS	HSV augment	HSV augment primary fold	PKD1 inh	GALR2 ag
O=C(NCCCn1ccnc1)c1csc2ccccc12	6	133	105	i	1.1	-2	-3.0
c1ccc(-c2ccc(-n3ccnc3)cc2)cc1	21	198	100	i	0.82	2	-2.5
O=C1NC(c2ccc3c(c2)OCO3)Oc2ccccc21 (stereo unspecified)	nt	nt	112	i	0.98	-5	-3.5
COC(=O)c1c(N)c(C#N)c(C)n1-c1ccccc1	nt	nt	99	i	1	6	0.1
Cc1noc(C(=O)Nc2cccnc2)c1Cl	nt	nt	108	i	1.1	2	-1.2
CCOC(=O)N1CCC(N2CCCC(C(=O)c3cc(F)ccc3OC)C2)CC1 (stereo unspecified)	nt	nt	102	i	1.2	-5	nt
Cc1cccc(C2(c3cccc(C)c3)CC2C(=O)Nc2ccc([N+](=O)[O-])cc2O)c1 (stereo unspecified)	10	128	101	i	0.65	-7	-1.1
CC1CCN(CCC(=O)N2CCCc3c2c(=O)oc2ccc(O)cc32)CC1	nt	nt	103	i	0.79	-13	-1.3
O=C(CCC(=O)Nc1ccc(Cl)cc1Cl)NNC(=O)[C@@H]1CCCC[C@@H]1C(=O)O	8	113	185*[activator]	i	0.96	22	-0.5
Cc1ccccc1NC(=O)COC(=O)CNC(=O)c1sc2ccccc2c1Cl	-11	51	72	i	1	-7	-1.4
COc1ccc(-n2nc(C(=O)NCC(=O)N3CCN(c4ccccn4)CC3)c3ccccc3c2=O)cc1	29	94	101	i	0.82	3	-1.3

Random draw from the library; any-hit rate near 1.1%.
